# D2 ag = activates the human D2 dopamine receptor. P14416. DiscoveRx PathHunter D2 beta-arrestin, luminescence, 90 min; 100% = 57 uM dopamine signal. activation, % (test concentration not listed). hit rate 0.084% among 360,000; in the data active = activation above about 40%; inconclusive = about 15% to 40%; inactive = below about 15%; also: compound concentration not given in the record; the text of the record calls up to 30% inactive
# Target sequence (P14416 whole entry, looked up): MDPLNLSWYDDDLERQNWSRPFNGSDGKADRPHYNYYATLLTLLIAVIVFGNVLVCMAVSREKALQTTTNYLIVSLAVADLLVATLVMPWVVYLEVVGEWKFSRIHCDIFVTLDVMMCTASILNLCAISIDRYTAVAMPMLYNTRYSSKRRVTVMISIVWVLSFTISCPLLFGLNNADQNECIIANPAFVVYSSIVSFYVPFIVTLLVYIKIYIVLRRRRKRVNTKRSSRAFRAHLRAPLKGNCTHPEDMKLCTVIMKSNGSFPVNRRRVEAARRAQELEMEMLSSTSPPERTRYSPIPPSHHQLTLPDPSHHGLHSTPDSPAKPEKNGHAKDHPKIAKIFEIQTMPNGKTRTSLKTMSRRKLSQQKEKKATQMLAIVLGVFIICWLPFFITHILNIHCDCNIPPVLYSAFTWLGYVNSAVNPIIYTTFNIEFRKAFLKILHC
#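 DiscoveRx PathHunter D2 beta-arrestin cells (2,100/well) attached overnight, then compound-stimulated 90 min at 37 C in HBSS/10 mM HEPES/0.1% Tween-20 buffer; beta-galactosidase complementation read by luminescence after 1 h at ambient temperature. Dopamine 57 uM final (EC100) as control.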
# PINK1 expr mod = modulators of PINK1 expression. Potency, µM (series often up to 76.6 µM), for inactives: at the highest dose activation (PINK1 increase), most hits filed as activators. hit rate 0.2% among 410,000. PINK1 immunofluorescence, high-content cytometry, 24 h; active = well fitted activation curve with a large enough effect; inconclusive = small, poorly fitted or top-dose-only effect; inactive = flat fitted curve, though single readings scatter; cell line not stated here;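 also: potency is read from the fitted curve at half-maximal effect; % of control where 0% means no effect; nearly all actives have a fitted effect of over 65% in size; a mitochondrial uncoupler was the plate control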
#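 Cells are seeded, rested 12 hours, then given compound at five concentrations or DMSO for 24 hours. After fixation, blocking and antibody staining, PINK1 amount and mitochondrial localization are scored; CCCP serves as control.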
# CtBP-E1A blk = blocks the CtBP interaction with E1A | AlphaScreen GST-E1A/His-CtBP binding, 1536-well; hits give low values; control for the full effect not named in the record | activity change, % (no concentration beside the values) | hit rate 0.49% among 340,000; in the data active means activity change below about -65%; inconclusive means about -30% to -65%; inactive means above about -30%; also: % is scaled to controls: 0 for no effect and ±100 for the full control effect; compound concentration not given in the record
#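 GST-E1A and His-tagged CtBP (125 nM each as 5X stock) were preincubated with pin-transferred compound for 2 h at 37 °C in the dark, then glutathione donor and nickel acceptor beads were added for 1 h before AlphaScreen reading.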
# Six1-Eya2 inh = inhibitors of human Six1/Eya2 interaction; Q15475+O00167; activity change, % (no concentration beside the values); hit rate 0.56% among 360,000; AID 651725; AlphaScreen GST-Six1/His-Eya2 binding, biochemical; hits give low values; control for the full effect not named in the record; in the data active = activity change below about -65%; inconclusive = about -30% to -65%; inactive = above about -30%; also: % is scaled to controls: 0 for no effect and ±100 for the full control effect; compound concentration not given in the record
#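 GST-Six1 + His-Eya2 (5X stock: 250/500 nM); Tris pH 8.0, 300 mM NaCl, 0.05% BSA, 0.02% Tween 20; GSH donor/Ni acceptor beads; 1 h 37 °C dark; AlphaScreen readout.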
# TRPML1 ag = activates the human TRPML1 channel | TRPML1-expressing cells, Ca2+ dye fluorescence, FDSS; host cell line not named in the record; reference of the full effect not given here | activation, % (no concentration beside the values) | hit rate 0.12% among 410,000 | AID 624414; in the data active = activation above about 50%; inconclusive = about 30% to 50%; inactive = below about 30%; also: 0% is about no effect; the text of the record puts the active cut at 80%
# Target sequence (Q9GZU1 whole entry, looked up): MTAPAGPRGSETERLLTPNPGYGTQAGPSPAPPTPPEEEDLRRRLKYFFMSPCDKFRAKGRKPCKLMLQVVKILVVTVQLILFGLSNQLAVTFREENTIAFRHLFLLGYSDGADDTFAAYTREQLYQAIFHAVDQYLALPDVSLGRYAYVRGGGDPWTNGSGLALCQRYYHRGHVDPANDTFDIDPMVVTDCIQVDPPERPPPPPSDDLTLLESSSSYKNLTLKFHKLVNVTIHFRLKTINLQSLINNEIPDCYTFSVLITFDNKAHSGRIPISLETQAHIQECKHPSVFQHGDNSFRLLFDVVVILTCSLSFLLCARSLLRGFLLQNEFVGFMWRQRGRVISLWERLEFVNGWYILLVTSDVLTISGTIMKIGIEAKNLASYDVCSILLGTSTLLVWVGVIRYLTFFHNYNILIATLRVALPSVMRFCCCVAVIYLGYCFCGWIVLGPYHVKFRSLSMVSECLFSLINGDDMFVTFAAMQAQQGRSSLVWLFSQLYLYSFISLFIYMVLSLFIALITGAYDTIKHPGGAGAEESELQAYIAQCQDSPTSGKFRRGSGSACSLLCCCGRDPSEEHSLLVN
#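 Kinetic FDSS Ca2+ read in Tet-induced TRPML1-DL cells (ABD Ca8 dye plus quencher, 45-90 min RT loading): baseline, then compound, then 110 s agonist window; EC80 agonist 54-4 at 4uM final added afterwards for a 110 s antagonist window.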
# TRPML1 inh = blocks the human TRPML1 channel; AID 624415; Q9GZU1; hit rate 0.02% among 390,000; activity change, negative = inhibition, % (test concentration not listed); TRPML1-inducible cells, Ca2+ dye fluorescence, FDSS; hits give low values; inhibition of EC80 agonist-evoked calcium signal; in the data active means activity change below about -50%; inconclusive means about -30% to -50%; inactive means above about -30%;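 also: stimulus is agonist 54-4 at its EC80 concentration; % is scaled to controls: 0 for no effect and ±100 for the full control effect; compound concentration not given in the record; the text of the record puts the active cut at -80%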
#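 Tet-induced TRPML1-DL cells loaded with Ca8 no-wash calcium dye were read kinetically on FDSS. Compound addition was followed by EC80 agonist 54-4 (4 uM final); inhibition was read over 110 s.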
# * marks the source's active call; other numbers are inactive results; ? = inconclusive; . = not tested or not shown; & = joins results of further samples; [ ] = dose if it differs, or a comment.
SMILES,D2 ag,PINK1 expr mod,CtBP-E1A blk,Six1-Eya2 inh,TRPML1 ag,TRPML1 inh
Cc1c(Cl)cccc1NC(=O)CNS(=O)(=O)c1cccs1,.,-4.2%,.,.,0.6,4
CC1(C(=O)NS(=O)(=O)c2ccccc2)CCN1C(=O)c1ccc(C2CCCCC2)cc1 (stereo unspecified),-6.0,0.6%,-20,2,0.0,?
NC(=O)c1ccsc1NC(=O)CSc1nc2ccccc2c(=O)n1CCCO,-0.1,4.8%[38.3 µM],2,-7,0.3,24
O=C1c2ccccc2C(=O)N1Cc1nc2ccccc2c(=O)n1CCN1CCOCC1,2.9,0.1%,0,0,0.0,7
COc1ccc(CN2CC(=O)N(c3cccc(Cl)c3)C2=S)cc1OC,1.7,1.8%,0,3,-0.8,-6
O=C(Cn1c(C(F)(F)F)nc2ccccc21)Nc1ccccc1N1CCOCC1,-4.6,0.0%,1,-2,0.4,1
O=C1C(Cl)=C(N2CCOCC2)C(=O)N1c1ccc(Br)cc1,1.9,2.3%,.,-5,.,.
C1CN(CC2COC(CN3CCOCC3)CO2)CCO1 (stereo unspecified),-2.5,0.2%,8,-1,-0.3,27
O=C(COc1ccc(Br)cc1)NCCCn1ccnc1,-4.2,0.2%,.,-5,-0.5,9
CN1/C(=C\C(=O)CSc2nnc(NCc3ccccc3)s2)C(C)(C)c2ccccc21,2.0,9.6%,-1,-17,2.5,-13
CC(=O)N1c2ccc(S(=O)(=O)N3CCCC3)cc2CC1C(=O)NCc1ccccc1F (stereo unspecified),7.8,-0.9%,-12,-7,-0.8,2
COC(=O)Cn1c(=O)cnc2ccccc21,1.5,21%[38.3 µM],3,3,0.4,6
COC(=O)C1=C(O)/C(=C\c2ccc(OCC(=O)Nc3ccccc3OC)cc2)N=C1C,-4.7,0.0%,2,3,0.8,-7
O=C(NCCc1ccccc1)c1ccc(CS(=O)Cc2ccc(Cl)cc2)o1 (stereo unspecified),3.3,-0.9%&2.3%,-6,10,-0.1&-0.3,5&-7
Cc1csc(SCC(=O)NC2CCCC2)n1,-1.3,0.7%,.,7,0.0,-11
C/C(=N\NC(=O)CCC(=O)N/N=C(\C)c1ccc(C)o1)c1ccc(C)o1,-2.0,-0.5%,1,0,4.3,2
O=C(CCC1CCN(C(=O)c2cc(C(F)(F)F)ccc2Cl)CC1)NC1CC1,1.4,0.1%,.,4,1.5,-6
CCn1nc(NS(=O)(=O)c2ccc([N+](=O)[O-])cc2)c2cc3cc(C)ccc3nc21,-5.6,-0.2%,-13,-13,-1.1,5
Cc1c(CC(=O)NCC(=O)O)c(=O)oc2cc3c(cc12)CCC(C)(C)O3,7.3,0.5%,.,-7,0.9,11
CCOC(=O)CC(=O)NC1(Cc2ccc(O)cc2)CCCCC1,-1.6,0.7%,5,-5,0.1,-26
O=C(/C=C/c1ccco1)N/C(=C\c1ccccc1)C(=O)NCCc1nc2ccccc2[nH]1,-4.5,-3.0%,-3,0,0.0,3
CC(=O)c1ccc(S(=O)(=O)Nc2ccc3c(c2)OCO3)cc1,0.8,-0.9%,0,-7,0.6,-13
CC(C)Cc1ccc(/C=C/C(=O)N2CCCCC2)cc1,0.9,7.4%,0,-14,0.3,-8
COc1cccc(OC)c1C(=O)Nc1ccc(Cc2ccncc2)cc1,0.0,-2.3%,12,1,0.0,-13
COc1ccc(-c2nc(CS(=O)(=O)CC(=O)NCCc3cc(OC)ccc3OC)c(C)o2)cc1,-1.8,-1.6%[38.3 µM],-11,-11,0.6,-6
C=CCNC(=O)CSc1nnc(-c2ccccc2Br)n1-c1cccc(C(F)(F)F)c1,2.1,5.2%,6,5,-0.9,-6
Cc1ccc2nc(CSc3nnc(-c4ccco4)n3-c3ccccc3)cc(=O)n2c1,0.9,-4.1%,-18,2,-0.3,-17
O=C(N/N=C/c1cccnc1)c1cc(-c2ccccc2)nc2ccccc12,2.7,11%,-7,-8,1.7,-5
Cc1nn(CC(=O)N2CCOCC2)c(=O)c2c1sc1ccccc12,0.9,-0.2%,3,2,-0.5,13
O=C(Nc1ccc(F)cc1)c1ccc2ncsc2c1,5.9,-0.1%,.,5,-0.3,6
Cc1ccc(N2CCN(S(=O)(=O)c3cc(Br)cc4c3N(C(=O)C3CC3)CC4)CC2C)cc1 (stereo unspecified),.,2.8%,.,.,-0.5,38
O=C(O)C1CCCCC1C(=O)N1CCCC1 (stereo unspecified),-1.0,4.2%,4,1,0.7,51
CC1CN(C(=O)CCC(=O)NC(C)c2ccccc2)c2cc(Cl)ccc2O1 (stereo unspecified),-2.4,3.0%,2,3,-0.4,22
CCOC(=O)N1CCN(S(=O)(=O)c2ccc3c4c(cccc24)C(=O)N3)CC1,0.8,-0.6%,-3,-9,0.6,3
CCN(CC)CCCN=Cc1c(-c2ccccc2)[nH]n(-c2nc3ccccc3s2)c1=O,-1.6,0.8%,0,7,1.2,2
CCc1ccc(S(=O)(=O)N2CCN(Cc3ccco3)CC2)cc1,-1.2,1.6%,9,11,-0.2,-2
Cc1ccccc1C(=O)N1CCN(S(=O)(=O)c2cccs2)CC1,-0.4,-1.0%,-5,2,-0.2,-9
CN(C(=O)C(C)(C)C)c1ccc(OCC(=O)N2CCc3ccccc3C2)cc1,-0.1,3.3%,0,8,0.6,30
O=S(=O)(/C=C/c1ccccc1)N1CCN(c2cccc(Cl)c2)CC1,-1.9,-4.7%[38.3 µM],9,6,2.2,-9
Cc1ccc(N=C(NOC(=O)c2ccccc2)c2nonc2N)c(C)c1,11,-0.4%,-6,-2,2.9,-6
O=C(CCOc1ccccc1)Nc1ccccc1[N+](=O)[O-],-3.2,-0.2%,-4,-9,4.0,10
COc1ccc2sc(NC(=O)c3ccco3)nc2c1,-0.3,3.7%[38.3 µM],17,-1,-0.6,6
Cc1ccc(Cn2c(C)c(CNCC(C)c3ccccc3)c(C(=O)O)c2C)cc1 (stereo unspecified),.,0.8%,.,.,-0.3,-1
CCCCC(CC(C)O)c1n[nH]c(=S)n1-c1ccccc1 (stereo unspecified),-3.2,-0.7%,-16,-3,-0.4,9
Cc1ccc(/C=c2\s/c(=C(/C#N)C(=O)N3CCCC3)n(Cc3ccco3)c2=O)s1,-0.1,12%,-10,-13,10,-6
O=C(CN1CCCSc2ccccc21)N1CCN(S(=O)(=O)c2ccccc2)CC1,5.5,-0.8%,-6,-16,-1.0,11
CCCCN(C)c1c(C)nc2ccc(C(=O)Nc3cc(-c4ccccc4)ccc3OC)cn12,1.3,1.2%,-1,-7,-0.4,56
COc1ccc(CCNC(=O)c2nnn(CC(=O)Nc3ccc(C)cc3C)c2N)cc1OC,-1.2,2.1%,2,1,0.0,-3
CC(C)CCn1c(SCC(=O)OCn2nnc3ccccc3c2=O)nc2ccccc2c1=O,-1.3,2.1%[38.3 µM],9,-4,-0.3,5
CCOc1ccc(C(=O)Nc2ccc(C(F)(F)F)n(C)c2=O)cc1,0.9,1.5%,6,16,-0.5,-8
COCc1nnc(NC(=O)c2ccc(S(=O)(=O)N3CCCc4ccccc43)cc2)o1,0.0,7.7%,-8,-2,1.1,44
CN(CC(=O)Nc1ccc(S(N)(=O)=O)cc1)Cc1ccccc1F,-1.3,0.8%,2,8,-0.2,-3
Cc1cccc2c1Sc1ccccc1CC2=O,-5.1,2.6%,27,47,1.0,-4
COc1ccc(OC)c(NC(=O)Nc2ccc3c(c2)CCC3)c1,-4.4,3.5%,-17,-20,0.9,7
Cc1c(C(=O)N(Cc2ccc(N(C)C)cc2)CC2CCCO2)oc2ccccc12 (stereo unspecified),-1.2,2.7%&0.4%,?,?,0.3&0.3,25&20
Cc1ccc(Cn2c(=N)n(CC(O)c3ccco3)c3ccccc32)cc1 (stereo unspecified),-4.1,-0.7%,-11,-17,-1.0,-10
CC1=C(C(=O)OC(C)C)C(c2ccc(Cl)cc2)n2c(sc(=Cc3ccc(OCC(=O)O)cc3)c2=O)=N1 (stereo unspecified),-4.3,5.1%,-5,-16,0.1,-8
O=c1c2c([nH]c3ccccc13)C(=C1CCCC1)CC2,-3.8,-1.9%,-9,-9,-1.0,3
O=C(Nc1ccc(Cl)cc1)OCc1cncs1,-2.6,3.1%,16,14,0.0,-15
O=C(Cn1nnc(-c2cccs2)n1)Nc1ccccc1C(F)(F)F,-4.9,12%,.,6,0.6,-4
# (list continues)
SMILES,D2 ag,PINK1 expr mod,CtBP-E1A blk,Six1-Eya2 inh,TRPML1 ag,TRPML1 inh
CCc1c(C)nc2[nH]nc(-c3ccccc3C)n2c1=O,-5.1,0.9%,-12,-9,-0.9,83
CC1=C(C(=O)Nc2ccccc2)C(C(C)C)n2nc(SCc3ccccc3C)nc2N1 (stereo unspecified),.,0.2%,.,.,-0.8,-4
O=C(Nc1ccc(O)c(-c2nc3ccccc3o2)c1)c1ccco1,.,-0.2%,.,.,4.5,0
Cc1nn(-c2ccccc2)c(C)c1C(=O)OCC(=O)Nc1ccccc1C(F)(F)F,4.8,-1.5%,0,-2,3.1,-4
Nc1ncnc2c1ncn2[C@@H]1O[C@H](CO)[C@@H](O)[C@@H]1O,-6.5,-0.3%,-10,-22,-0.5,2
CC1CCCCC12NC(=O)N(CC(=O)NC(=O)NCc1ccco1)C2=O (stereo unspecified),-4.8,-0.1%,30,14,-0.2,-9
COc1ccc(C2=NN(CN3C(=O)C(=O)c4ccccc43)C(c3cccc([N+](=O)[O-])c3)C2)cc1 (stereo unspecified),8.4,4.7%,-8,-9,-0.1,23
CC(C)(C)C1CCC(C(=O)Nc2cccnc2)CC1 (stereo unspecified),0.9,2.8%,2,4,-0.7,4
COc1cc(C(=S)N2CCCC2)ccc1OC(=O)c1ccc(Cl)cc1[N+](=O)[O-],11,-0.5%,-28,?,-0.8,4
Cc1nnc(SC(C)C(=O)Nc2nccs2)s1 (stereo unspecified),-1.9,1.2%,12,3,1.0,-29
CCCCN(Cc1ccccc1)C(=O)CN(C)S(=O)(=O)c1ccc2c(c1)c(=O)n(C)c(=O)n2C,.,-0.3%,.,.,1.7,8
CCOc1ccc(OCCn2ccnc2)cc1,0.0,2.0%,8,-2,0.1,-6
CNCC(O)Cn1c(C(F)(F)F)nc2ccccc21 (stereo unspecified),-0.8,-1.5%,0,2,-0.3,7

# Some of the entries above in a different format:
CCCCN(Cc1ccccc1)C(=O)CN(C)S(=O)(=O)c1ccc2c(c1)c(=O)n(C)c(=O)n2C
  D2 ag = . | PINK1 expr mod = -0.3% | CtBP-E1A blk = . | Six1-Eya2 inh = . | TRPML1 ag = 1.7 | TRPML1 inh = 8

CNCC(O)Cn1c(C(F)(F)F)nc2ccccc21 (stereo unspecified)
  D2 ag = -0.8 | PINK1 expr mod = -1.5% | CtBP-E1A blk = 0 | Six1-Eya2 inh = 2 | TRPML1 ag = -0.3 | TRPML1 inh = 7

CCOc1ccc(OCCn2ccnc2)cc1
  D2 ag = 0.0 | PINK1 expr mod = 2.0% | CtBP-E1A blk = 8 | Six1-Eya2 inh = -2 | TRPML1 ag = 0.1 | TRPML1 inh = -6

# Compound activity (PubChem)
